HIV Env fusion: HIV envelope-mediated fusion inhibition. HeLa-JRFL Env/CEM21 cell fusion, luciferase. inhibition, % at 12.3 µM. 360,000 compounds, 1.1% hits. AID 651610;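 active = mean replicate inhibition score of at least 50 and every replicate individually at or above 50; inconclusive = only one of the two criteria met; inactive = mean below 50 and not all replicates reaching 50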;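 also: 0% = plate neutral controls and 100% = maraviroc near 300 nM; one replicate is shown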
Rce1 inhib: inhibitors of yeast Ras-converting enzyme; Q03530; yeast membranes, quenched prenylated peptide cleavage fluorescence; calls only; 290,000 compounds, 0.27% hits; AID 2563;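 active = fall in fluorescence gain of 50% or more versus controls, with final raw signal at or below 3038400; inconclusive = same 50% fall but final raw signal above 3038400; inactive = fall in fluorescence gain under 50%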;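 also: plate controls were neutral control wells for no effect and wells lacking membranes for full effect; tested at 10 µM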
Target sequence (Q03530 whole entry, looked up): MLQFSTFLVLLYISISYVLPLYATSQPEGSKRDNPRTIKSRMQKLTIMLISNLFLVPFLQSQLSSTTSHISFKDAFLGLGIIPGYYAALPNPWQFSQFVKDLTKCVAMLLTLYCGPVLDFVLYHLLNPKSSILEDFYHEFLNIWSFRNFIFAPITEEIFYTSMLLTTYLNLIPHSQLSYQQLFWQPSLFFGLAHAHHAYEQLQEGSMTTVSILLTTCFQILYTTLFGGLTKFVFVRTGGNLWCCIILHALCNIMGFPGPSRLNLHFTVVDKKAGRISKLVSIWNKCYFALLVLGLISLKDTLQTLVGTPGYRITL
MT1-MMP act inh: inhibitors of human MT1-MMP activation. P50281. HT1080 RFP-PRO-GFP cells, GFP/RFP ratio fluorescence, overnight; percent of plate control window, DMSO zero. GFP/RFP ratio change, % at 20 µM. 360,000 compounds, 0.061% hits;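 active = GFP/RFP ratio change of at least 30% with cell ATP level not reduced by more than half and red fluorescence within 50% of control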; also: strong numbers were not always called active
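Read-out: GFP/RFP fluorescence ratio; Test system: RFP-PRO-GFP reporter HT1080 cells; Compound dosing: single-point 20 µM compound, 1% DMSO; Times: overnight compound exposure at 37 °C.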
CSC inhib: cancer stem cell inhibition; 300,000 compounds, 1.1% hits; inhibition, % at 7.5 µM; cancer stem cell-like cells viability, luminescence;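 active = mean at 75% or more and at least half the replicates too; inconclusive = mean and replicates disagree; tested in HMLE shEcad cells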;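 also: 0% = median of negative and 100% = median of positive control wells; the first replicate is given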
MT1-MMP act inh RFP: second read-out of MT1-MMP act inh, no call of its own (marks repeat the call); RFP signal change, %; measured here: RFP expression control read;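 0 = vehicle wells; hits needed this value within 50% of zero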
Numbers without * were called inactive. Some of the compounds tested; rates above refer to the full screens.

For COc1ccc(S(=O)(=O)NNS(=O)(=O)c2ccc(OC)c(OC)c2)cc1OC the results were MT1-MMP act inh 3 and MT1-MMP act inh RFP 3.
For CCCCC[C@H](C)N1C[C@@H](COCc2ccccc2)Oc2cc(N3CC[C@H](N(C)C)C3)ccc2S1(=O)=O the results were MT1-MMP act inh 5 and MT1-MMP act inh RFP 2.
Oc1ccc(C=NN=Cc2ccco2)c(O)c1 was read as MT1-MMP act inh -9 and MT1-MMP act inh RFP 3.
Screening CN(Cc1cccs1)C(=O)COc1cccc2c1OC(C)(C)C2 returned MT1-MMP act inh 0 and MT1-MMP act inh RFP -1.
Screening CN(C)CCN(Cc1ccco1)c1ccccn1 returned MT1-MMP act inh 3 and MT1-MMP act inh RFP 4.
Cn1c(=O)c2[nH]c(=S)n(Cc3ccccc3)c2n(C)c1=O was read as MT1-MMP act inh 0 and MT1-MMP act inh RFP -2.
For O=C(O)CCC(=O)c1ccc2sc3ccccc3c2c1 the results were MT1-MMP act inh 3 and MT1-MMP act inh RFP 7.
`COc1cc(N)ccc1Nc1c2ccccc2nc2ccccc12` gave MT1-MMP act inh 4 and MT1-MMP act inh RFP -1.
For Cc1cc(=O)[nH]c2ccc(Cc3ccccc3)cc12 the results were MT1-MMP act inh 13 and MT1-MMP act inh RFP 2.
CC(=O)c1ccc(S(=O)(=O)N2CCN(CC(=O)NC(=O)NC3CCCCC3)CC2)cc1 was read as MT1-MMP act inh 3 and MT1-MMP act inh RFP -5.
`Cc1cccc(NS(=O)(=O)c2ccc(C)c(C(=O)NCC(c3cccs3)N(C)C)c2)c1` (stereo not given) gave MT1-MMP act inh 3 and MT1-MMP act inh RFP -5.
CCCCC[C@@H](C)N1C[C@@H](COCc2ccccc2)Oc2cc(N3CCC[C@H]3COC)ccc2S1(=O)=O was read as MT1-MMP act inh -5 and MT1-MMP act inh RFP -11.
O=C(c1ccco1)N1CC2(CC(c3ccc(Cl)cc3)=NO2)CN1Cc1ccc(Br)cc1 (stereo not given) was read as MT1-MMP act inh 1 and MT1-MMP act inh RFP -15.
`C[C@@H](c1ccccc1)N1C[C@@H](COCc2ccccc2)Oc2cc(N3CC[C@@H](N(C)C)C3)ccc2S1(=O)=O` gave MT1-MMP act inh 3 and MT1-MMP act inh RFP 1.
`NC(CSC(c1ccccc1)(c1ccccc1)c1cccc2ccccc12)C(=O)O` (stereo not given) gave MT1-MMP act inh 3 and MT1-MMP act inh RFP 5.
Screening CCCCN(Cc1ccccc1)S(=O)(=O)c1cc2c(cc1Br)CC(C)N2C(C)=O (stereo not given) returned MT1-MMP act inh -3 and MT1-MMP act inh RFP -12.
Screening O=C1OCCOC2CCCc3oc(C4=CCCCC4)c1c32 (stereo not given) returned MT1-MMP act inh 4 and MT1-MMP act inh RFP 1.
CNc1nc(=O)n(C2CCCO2)cc1C (stereo not given) was read as MT1-MMP act inh 1 and MT1-MMP act inh RFP -1.
O=C1C=C(O)CC2(CCCCC2)C1 was read as MT1-MMP act inh 7 and MT1-MMP act inh RFP 6.
CC12C=CC(=O)C=C1CCC1C2CCC2(C)C(C(=O)CO)CCC12 (stereo not given) was read as MT1-MMP act inh 5 and MT1-MMP act inh RFP -4.
Screening CC(O)C(NC(=O)OCc1ccccc1)C(=O)NCC(=O)NCC(=O)OCc1ccccc1 (stereo not given) returned MT1-MMP act inh 3 and MT1-MMP act inh RFP 6.
For O=c1ccncn1C1OC(CO)C(O)C1O (stereo not given) the results were MT1-MMP act inh -4 and MT1-MMP act inh RFP 2.
`COc1ccc(/C=C2\C(=O)NC(=O)c3ccccc32)cc1OC` gave MT1-MMP act inh 0 and MT1-MMP act inh RFP 3.
For Cc1cc2nc(CN(C)C(=O)C3CCC(=O)N(C4CCCC4)C3)[nH]c2cc1C (stereo not given) the results were MT1-MMP act inh 6 and MT1-MMP act inh RFP 3.
For O=S1(=O)N[C@H](Cc2ccccc2)COc2cccc(N3CCC[C@@H]3CO)c21 the results were MT1-MMP act inh 4 and MT1-MMP act inh RFP 5.
Screening CCCCC[C@@H](C)N1C[C@H](COCc2ccccc2)Oc2cc(N3CCC[C@H]3CO)ccc2S1(=O)=O returned MT1-MMP act inh 4 and MT1-MMP act inh RFP 0.
For CC1(C)CC(NCc2ccccc2)=CC(=S)N1 the results were MT1-MMP act inh -23 and MT1-MMP act inh RFP -1.
`Nc1nc(=S)c2ncn(C3CCCCC3)c2[nH]1` gave MT1-MMP act inh -3 and MT1-MMP act inh RFP -2.
C[C@@H]1COc2cc(N3CC[C@H](O)C3)ccc2S(=O)(=O)N1 was read as MT1-MMP act inh 6 and MT1-MMP act inh RFP 7.
For CC1(C)OC2CC3C4CCC5=CC(=O)CCC5(C)C4(F)C(O)CC3(C)C2(C(=O)CO)O1 (stereo not given) the results were MT1-MMP act inh -5 and MT1-MMP act inh RFP -4.
`Cc1ccsc1C(=O)NNC(=O)c1ccncc1` gave MT1-MMP act inh 0 and MT1-MMP act inh RFP 0.
Screening CN(C)CC1CCC/C(=C\c2ccc(OC(=O)/C=C/c3ccc(Cl)c(Cl)c3)cc2)C1=O (stereo not given) returned MT1-MMP act inh -4 and MT1-MMP act inh RFP 0.
`CC(C)CC(NC(=O)OCc1ccccc1)C(=O)NC(Cc1c[nH]c2ccccc12)C(=O)O` (stereo not given) gave MT1-MMP act inh 2 and MT1-MMP act inh RFP 2.
`CC(=O)C1N=NCC1c1ccccc1` (stereo not given) gave MT1-MMP act inh 0 and MT1-MMP act inh RFP 4.
For O=C(OCCn1c(=S)sc2ccccc21)c1ccccc1 the results were MT1-MMP act inh -3 and MT1-MMP act inh RFP -1.
For COc1ccccc1N1CCN(C(=O)CSc2nnnn2C2CC2)CC1 the results were MT1-MMP act inh -2 and MT1-MMP act inh RFP 1.
COc1ccc(-c2sc3cc(OC)ccc3c2-c2ccc(OCCN3CCCCC3)cc2)cc1 was read as MT1-MMP act inh 5 and MT1-MMP act inh RFP 2.
CC1C(c2ccc3c(c2)OCO3)c2cc3c(cc2OC1N1CCOCC1)OCO3 (stereo not given) was read as MT1-MMP act inh -8 and MT1-MMP act inh RFP 1.
`ClN=C1C=CC=CC1=NCl` gave MT1-MMP act inh 10 and MT1-MMP act inh RFP 5.
`COc1cc2sc3ccc(-c4ccc(N(C)C)nc4)cc3c(=O)c2cc1OC` gave HIV Env fusion -96 and Rce1 inhib inactive.
Screening O=C(Nc1cc(Cl)ccc1-n1cncn1)c1cc(F)cc(F)c1 returned Rce1 inhib inactive, MT1-MMP act inh 2 and MT1-MMP act inh RFP 3.
`Cc1ccc(CNC(=O)CN(C(=O)N2CCN(C)CC2)S(=O)(=O)c2ccc(C)cc2)cc1` gave Rce1 inhib inactive, MT1-MMP act inh -1 and MT1-MMP act inh RFP 3.
Screening O=C(COC(=O)C1CCC1)Nc1cccc(Cl)c1 returned Rce1 inhib inactive, MT1-MMP act inh 3 and MT1-MMP act inh RFP 2.
`Cc1cccc(C)c1NC(=O)CN(C)C(=O)COc1cccc2c1OC(C)(C)C2` gave Rce1 inhib inactive, MT1-MMP act inh -1 and MT1-MMP act inh RFP 4.
CCCCn1c(N)c(N(CCOC)C(=O)c2cc3c(s2)CCC(C)C3)c(=O)[nH]c1=O (stereo not given) was read as Rce1 inhib inactive, MT1-MMP act inh 0 and MT1-MMP act inh RFP 3.
Screening COc1ccc(F)cc1S(=O)(=O)N1CCC2(CC1)OCCN2S(=O)(=O)c1ccccc1 returned Rce1 inhib inactive, MT1-MMP act inh -7 and MT1-MMP act inh RFP -7.
`Cc1cc(C)c(S(=O)(=O)N2CCC3(CC2)OCCN3S(=O)(=O)c2cccs2)c(C)c1` gave Rce1 inhib inactive, MT1-MMP act inh 2 and MT1-MMP act inh RFP -5.
O=C(CNC(=O)c1ccccc1F)Nc1ccncc1 was read as Rce1 inhib inactive, MT1-MMP act inh 1 and MT1-MMP act inh RFP 0.
`O=C1NC(Cc2ccccc2)c2nc3ccccc3c(=O)n2-c2cc(Cl)ccc21` (stereo not given) gave HIV Env fusion 2 and CSC inhib -13.
Screening NCCN1CCN2C(=O)CN(C(=O)c3ccccc3)CC12 (stereo not given) returned HIV Env fusion -20 and CSC inhib -9.
Screening Cc1ccc2c(=O)n3c(nc2c1)C(Cc1ccc(O)cc1)NC(=O)c1ccc(Cl)cc1-3 (stereo not given) returned HIV Env fusion 31 and CSC inhib -12.
Cc1ccc2c(c1)-n1c(nc3cc(F)ccc3c1=O)C(Cc1ccc(O)cc1)NC2=O (stereo not given) was read as HIV Env fusion inconclusive and CSC inhib -12.
O=C1NC(Cc2ccccc2)c2nc3cc(F)ccc3c(=O)n2-c2cc(Cl)ccc21 (stereo not given) was read as HIV Env fusion -3 and CSC inhib -19.
COc1cc(C(=O)NNC(=O)CCOc2ccccc2)cc(OC)c1OC was read as MT1-MMP act inh 1, CSC inhib -15 and MT1-MMP act inh RFP -4.
Screening O=C(CCS(=O)(=O)c1ccccc1F)Nc1ccc(N2CCN(Cc3ccccc3)CC2)cc1 returned MT1-MMP act inh 3, CSC inhib 39 and MT1-MMP act inh RFP 2.
Screening CCOc1ccc(NS(=O)(=O)c2ccc(C(=O)NNC(=O)c3ccccc3O)cc2)cc1 returned MT1-MMP act inh 3, CSC inhib 41 and MT1-MMP act inh RFP 2.
`CCc1cc(C(=O)N2CCN(S(=O)(=O)c3cc(C)ccc3C)CC2)sc1C` gave MT1-MMP act inh 0, CSC inhib 7 and MT1-MMP act inh RFP 0.
For COc1ccc(C(=O)C[N+]2(C)CCOCC2)cc1 the results were MT1-MMP act inh 24, CSC inhib -7 and MT1-MMP act inh RFP 5.
For Cc1cccc(C)c1NC(=O)COC(=O)CCc1c[nH]c2ccccc12 the results were MT1-MMP act inh 8, CSC inhib 3 and MT1-MMP act inh RFP -1.
Screening Cc1ccc(S(=O)(=O)N(C)CC(=O)OCC(=O)NCCc2ccc(S(N)(=O)=O)cc2)cc1 returned MT1-MMP act inh 4, CSC inhib -1 and MT1-MMP act inh RFP 5.

Brought forward from above: six entries; new compounds follow.
Screening O=C(CCS(=O)(=O)c1ccccc1F)Nc1ccc(N2CCN(Cc3ccccc3)CC2)cc1 returned MT1-MMP act inh 3, CSC inhib 39 and MT1-MMP act inh RFP 2.
Screening CCOc1ccc(NS(=O)(=O)c2ccc(C(=O)NNC(=O)c3ccccc3O)cc2)cc1 returned MT1-MMP act inh 3, CSC inhib 41 and MT1-MMP act inh RFP 2.
`CCc1cc(C(=O)N2CCN(S(=O)(=O)c3cc(C)ccc3C)CC2)sc1C` gave MT1-MMP act inh 0, CSC inhib 7 and MT1-MMP act inh RFP 0.
For COc1ccc(C(=O)C[N+]2(C)CCOCC2)cc1 the results were MT1-MMP act inh 24, CSC inhib -7 and MT1-MMP act inh RFP 5.
For Cc1cccc(C)c1NC(=O)COC(=O)CCc1c[nH]c2ccccc12 the results were MT1-MMP act inh 8, CSC inhib 3 and MT1-MMP act inh RFP -1.
Screening Cc1ccc(S(=O)(=O)N(C)CC(=O)OCC(=O)NCCc2ccc(S(N)(=O)=O)cc2)cc1 returned MT1-MMP act inh 4, CSC inhib -1 and MT1-MMP act inh RFP 5.
COc1ccc(S(=O)(=O)N2CCN(CCOc3ccccc3Cl)CC2)cc1OC was read as MT1-MMP act inh 12, CSC inhib -14 and MT1-MMP act inh RFP -8.
For CC(Oc1ccccc1F)c1nnc(SCC(=O)NCc2ccc3c(c2)OCO3)o1 (stereo not given) the results were MT1-MMP act inh 2, CSC inhib 2 and MT1-MMP act inh RFP 0.
For O=C(CSc1ccc(S(=O)(=O)N2CCCCC2)cn1)Nc1ccccc1Br the results were MT1-MMP act inh -1, CSC inhib 57 and MT1-MMP act inh RFP -6.
`COc1ccccc1C(=O)Nc1ccc(OCC(=O)N2CCCCC2)cc1` gave MT1-MMP act inh -1, CSC inhib 3 and MT1-MMP act inh RFP 1.
O=C(CCNC(=O)c1ccc([N+](=O)[O-])cc1)Nc1ccccc1N1CCCCC1 was read as MT1-MMP act inh 4, CSC inhib 1 and MT1-MMP act inh RFP 0.
Screening O=C(COc1ccc(-c2nnco2)cc1)Nc1cc([N+](=O)[O-])ccc1F returned MT1-MMP act inh 2, CSC inhib -19 and MT1-MMP act inh RFP 1.
`CC1Cc2ccccc2N1C(=O)COC(=O)c1n[nH]c(=O)c2ccccc12` (stereo not given) gave MT1-MMP act inh 1, CSC inhib -13 and MT1-MMP act inh RFP 4.
For O=C1COc2ccc(C(=O)COC(=O)c3ncc(Cl)c(Cl)c3Cl)cc2N1 the results were MT1-MMP act inh 4, CSC inhib -3 and MT1-MMP act inh RFP 4.
`COc1cc(C(=O)NCc2ccc(S(N)(=O)=O)cc2)ccc1OCC(=O)Nc1cccc(C(F)(F)F)c1` gave MT1-MMP act inh 3, CSC inhib 4 and MT1-MMP act inh RFP 0.
For CCOc1ccccc1N1CCN(C(=O)[C@@H]2CCCN2C2=NS(=O)(=O)c3ccccc32)CC1 the results were MT1-MMP act inh 2, CSC inhib -5 and MT1-MMP act inh RFP -3.
For Cc1ccc(-c2csc(NC(=O)c3c(C)noc3C)n2)s1 the results were MT1-MMP act inh -3, CSC inhib 1 and MT1-MMP act inh RFP -20.

From PubChem
